Screens as filed in PubChem BioAssay.
LANA-nucl inh: inhibitors of KSHV LANA-nucleosome binding, primary screen, biochemical, fluorescence polarization, FITC-LANA1-23, chicken nucleosomes; FITC-LANA1-23 / chicken nucleosome fluorescence polarization; active compounds read low; z-score (concentration not given with the values); hit rate 0.3% among 51,000; AID 720717, 2013;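 active = both repeat wells score below -2 in polarization z-score versus plate sample wells, excluding overly bright wells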;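 note: 100 nL library stock added to about 30 µL; numbers are from one replicate; some results filed as inactive read as strong as hits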
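Material: Purified chicken nucleosomes with FITC-labelled LANA N-terminal peptide (1-23) | Reagent: 50 nM FITC-LANA1-23 probe | Medium: TEN-BT buffer, pH 7.5 | Times: 10–45 min incubation at room temperature | Detection: Fluorescence polarization | Replication: Duplicates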
BasE inh: BasE siderophore enzyme inhibitors, primary screen, biochemical, Acinetobacter baumannii ATCC 17978, fluorescence polarization. inhibition, % (no concentration beside the values). AID 485350, 2010. hit rate 0.1% among 84,000. purified BasE, fluorescence polarization binding displacement;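 active = both replicates above 25% with normal brightness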;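 note: 0% = negative plate control signal and 100% = positive plate control signal; stock transfer was 100 nL into about 30 µL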
Active calls of the source: *; . = no result given; & = joins results of further samples. Some of the compounds tested; the hit share may differ from the screen's.

SMILES | LANA-nucl inh | BasE inh
Cc1ccc(NC(=S)Nc2cc(C(=O)N3CCC4(CC3)OCCO4)ccc2N2CC3CC(C2)c2cccc(=O)n2C3)cc1 (stereo unspecified) | -0.065 | 1.9
CC1CCCC/C1=N\NC(N)=O (stereo unspecified) | . | 3.3
COC(=O)CN1CC(=O)NC(=O)C1 | . | -0.8
CSc1ccccc1NC(=O)C1CC1C (stereo unspecified) | . | 3.7
Cc1csc(C(C#N)C(=O)CSc2nnc(Nc3cccc(F)c3)s2)n1 (stereo unspecified) | . | 0.5
C=CCn1c(=S)sc2c(=O)n(Cc3cccc(C(F)(F)F)c3)cnc21 | . | -1.3
CCOc1ccc(CN(C2CC2)S(=O)(=O)c2ccc(S(=O)(=O)N(C)C)cc2)cc1 | -0.37 | 3.0
OC(c1ccc(Cl)cc1)c1nnc(-c2ccccc2)o1 (stereo unspecified) | . | -0.1
C=CCn1c(C2CC(=O)N(c3cccc(C)c3)C2)nc2ccccc21 (stereo unspecified) | . | -0.8
CN(C)/C=C1\COc2ccc(Cl)cc2C1=O | 0.76 | -0.6
O=S(=O)(Nc1ccc(O)c2ccccc12)c1ccccc1 | 0.43 | 1.5
CN(C)S(=O)(=O)c1ccc(C(=O)N2CCCCCCC2)cc1 | . | -0.6
COC(=O)Cn1cnc2c(cnn2-c2ccc(F)cc2)c1=O | -0.27 | 0.3
CN(C)/C=C/C(=O)c1ccccc1 | -0.55 | -0.1
O=C1CCC(C(=O)OCc2nnc(-c3ccccc3)o2)=NN1 | . | -0.7
CSc1nnc(CCNC(=O)N2CCOCC2)n1C(C)C | -0.15 | 0.7
CN(C)/N=C(\NO)c1c(F)cccc1Cl | . | 2.5
O=C(NNc1ncnc2sc3c(c12)CCCC3)c1ccccc1-n1cccc1 | . | 1.8
Cc1cc(NC(=O)c2cc(-c3cccc(O)c3)on2)no1 | -0.56 | -1.3
CC(CCc1ccccc1)NC(=O)CN1CC(C)OC(C)C1 (stereo unspecified) | . | -0.5
CC1=NN(CCC#N)C(=O)/C1=C\c1ccc(N(C)C)cc1 | -0.47 | 2.6
FC(F)(F)c1cc(Br)cc(Br)c1 | . | 1.2
Cc1nc(-c2ccncc2)nc(NCCNc2ccc(C(F)(F)F)cn2)c1Cl | . | 4.4
Nc1ncnc2c1ncn2CCNCc1ccc2c(c1)OCO2 | 0.51 | -0.3
Cc1oc(S(=O)(=O)N2CCOCC2)cc1-c1nc(-c2ccc(C(F)(F)F)cc2)no1 | 0.17 | -0.9
NCC(c1ccco1)N1CCOCC1 (stereo unspecified) | 0.3 | -2.6
N#CCc1c(C#N)c(N)nc(N2CCN(Cc3ccc4c(c3)OCO4)CC2)c1C#N | . | -3.2
CCC1c2[nH]c3ccccc3c2CCN1C(=O)c1ccc(Cl)cc1 (stereo unspecified) | . | -0.9
N#Cc1ccccc1Cn1cc(C=C2C(=O)NC(=O)NC2=O)c2ccccc21 | -3.6* | 5.3
Cc1ccc(Nc2nc(Oc3ccc(=O)n(-c4ccccc4)n3)nc(N(C)C)n2)cc1 | -0.53 | -0.8
CCCCNC(=O)C1CCC(CNS(=O)(=O)c2ccccc2)CC1 (stereo unspecified) | 0.38 | 1.9
O=C(COC(=O)c1ccc2c(=O)n3c(nc2c1)CCCCC3)Nc1ccc2c(c1)OCCO2 | . | -0.8
O=C(Nc1ccccc1C(=O)NCc1ccccc1)c1ccccc1 | . | 2.1
S=c1[nH]c2c(s1)sc1ccccc12 | 0.26 | 3.9
O=C(CN1C(=O)c2ccccc2C1=O)NCC(F)(F)F | . | 1.6
O=C(NCc1ccc(F)cc1)c1cccc2c1C(=O)N(Cc1cccnc1)C2 | -0.27 | -1.5
CCCOc1nc(N)c(C#N)c(-c2ccccc2F)c1C#N | 1.3 | -6.3
O=C(NCC(=O)c1cccs1)NC1CCCC1 | . | 1.0
CN1CCN(NC(=O)Cc2ccccc2Cl)CC1 | 0.66 | 1.0
O=C(c1ccccc1)N1CCN(c2cccc(Cl)c2)CC1 | . | 1.7
O=C1CN(c2ccccc2F)C(=O)CN1/N=C/c1cccs1 | -0.3 | 1.4
Cc1ccccc1Nc1ncccc1C(=O)N1CCOCC1 | 0.23 | 1.8
CCSc1ccccc1C(=O)NCCCn1ccnc1 | 3.3 | -2.6
N#CSc1ccc(NCCO)cc1C(F)(F)F | 0.96 | -1.3
CCOC(=O)c1cc2occc2n1CCc1ccccc1 | -0.054 | -5.8
O=C(Nc1ccccc1C(=O)O)c1cccc(Cl)c1 | -1.1 | -0.9
COc1ccc(-c2noc(CNC(=O)c3ccc(C)cc3C)n2)cc1OC | -0.25 | -0.4
COc1ccc(NC(=O)c2c[nH]c(=O)[nH]c2=O)cc1 | . | -1.8
Nn1c(SCC(=O)NC(=O)NC2CCCC2)nnc1SCC(=O)NC(=O)NC1CCCC1 | . | 0.7
Cc1ccc(Cn2nnc3c(=O)[nH]c(C(=O)NC(C)(C)C)nc32)cc1 | -0.4 | 1.1
NC(=S)Sc1nncn1C(=O)c1ccc(=O)[nH]n1 | . | 0.9
CN(CC1COc2ccccc2O1)c1nnnn1-c1ccccc1 (stereo unspecified) | . | 0.1
Cc1cc(=O)n(CCOc2ccccc2)c2c1c(C)nn2-c1ccccc1 | 0.54 | -0.2
CCCC(=O)Nc1ccc2nc(-c3ccccc3)[nH]c2c1 | -2.1 | -0.8
O=C(O)C1CC(=O)N(CCCN2CCOCC2)C1 (stereo unspecified) | -0.72 | -0.4
Cn1c(C2CCCO2)nc2ccccc21 (stereo unspecified) | -0.38 | 0.4
CCN1C(=O)/C(=C2\SC(=S)N(N)C2=O)c2ccccc21 | -1.3 | 4.1
CCN(c1ccccc1)S(=O)(=O)c1ccc(N)cc1 | 0.82 | -2.5
CC(NS(=O)(=O)c1ccc(N)cc1)C1CC2CCC1C2 (stereo unspecified) | . | -0.7
CCC(=O)Nc1ccc(Cl)cn1 | 0.031 | 0.6

Nothing new here: 17 of the compounds above.
SMILES | LANA-nucl inh | BasE inh
O=C1CN(c2ccccc2F)C(=O)CN1/N=C/c1cccs1 | -0.3 | 1.4
Cc1ccccc1Nc1ncccc1C(=O)N1CCOCC1 | 0.23 | 1.8
CCSc1ccccc1C(=O)NCCCn1ccnc1 | 3.3 | -2.6
N#CSc1ccc(NCCO)cc1C(F)(F)F | 0.96 | -1.3
CCOC(=O)c1cc2occc2n1CCc1ccccc1 | -0.054 | -5.8
O=C(Nc1ccccc1C(=O)O)c1cccc(Cl)c1 | -1.1 | -0.9
COc1ccc(-c2noc(CNC(=O)c3ccc(C)cc3C)n2)cc1OC | -0.25 | -0.4
COc1ccc(NC(=O)c2c[nH]c(=O)[nH]c2=O)cc1 | . | -1.8
Nn1c(SCC(=O)NC(=O)NC2CCCC2)nnc1SCC(=O)NC(=O)NC1CCCC1 | . | 0.7
Cc1ccc(Cn2nnc3c(=O)[nH]c(C(=O)NC(C)(C)C)nc32)cc1 | -0.4 | 1.1
NC(=S)Sc1nncn1C(=O)c1ccc(=O)[nH]n1 | . | 0.9
CN(CC1COc2ccccc2O1)c1nnnn1-c1ccccc1 (stereo unspecified) | . | 0.1
Cc1cc(=O)n(CCOc2ccccc2)c2c1c(C)nn2-c1ccccc1 | 0.54 | -0.2
CCCC(=O)Nc1ccc2nc(-c3ccccc3)[nH]c2c1 | -2.1 | -0.8
O=C(O)C1CC(=O)N(CCCN2CCOCC2)C1 (stereo unspecified) | -0.72 | -0.4
Cn1c(C2CCCO2)nc2ccccc21 (stereo unspecified) | -0.38 | 0.4
CCN1C(=O)/C(=C2\SC(=S)N(N)C2=O)c2ccccc21 | -1.3 | 4.1

Next section:
SMILES | LANA-nucl inh | BasE inh
O=S1(=O)c2cccc3cccc(c23)N1CC1CN(Cc2ccccc2)CCO1 (stereo unspecified) | . | 0.1
CCOC(=O)c1c[nH]c2c(ccc3ccccc32)c1=O | -0.82 | -0.9
O=c1[nH]ncc2c1[nH]c1ccccc12 | 0.22 | 0.4
CN/N=C/c1ccc(C#N)cc1 | . | -1.2
O=C(c1ccccc1C(F)(F)F)N1CCCc2ccccc21 | . | 0.0
O=C(COC(=O)c1cncc(Br)c1)NCc1ccc(F)cc1 | . | -0.8
Oc1c(C=Nc2ccc(Cl)cc2)[nH]c2ccccc12 | . | -35
CCOc1ccc(OCCSc2nc(C)cc(=O)[nH]2)cc1 | . | 0.0
CC(OC(=O)Cc1ccsc1)C(=O)Nc1ccc(Cl)cn1 (stereo unspecified) | . | -0.9
COc1ccc2c(c1)C(=O)CC(c1ccc3c(c1)OCCO3)O2 (stereo unspecified) | . | 1.4
Cc1ccc(C(O)CCC(=O)O)cc1 (stereo unspecified) | 0.011 | -0.4
COc1ccc(CCN=C=S)cc1 | . | 0.4
S=c1[nH]nc(Cc2cccc3ccccc23)n1/N=C/c1ccco1 | . | 0.3
CCCN1CCC(NCCc2ccc(Cl)cc2)CC1 | -0.49 | -0.8
Cc1nnc(COc2ccc3ccccc3c2Br)o1 | . | -3.5
CN(C)c1ccc(CO)c(F)c1C#N | 0.36 | .
Cc1cc(C)cc(N(C(C)C(N)=O)S(C)(=O)=O)c1 (stereo unspecified) | -0.77 | 4.9
CC(O)c1cccc(NC(=O)C2C3C=CC(C3)C2C(=O)O)c1 (stereo unspecified) | -0.27 | 4.3
COC(CNC1=CC(=O)OC12CCCCC2)OC | -0.024 | -0.3
CCc1sc(NC(=O)CN2CCCC2)nc1-c1ccccc1 | 0.41 | 1.4
O=C(N=C1SCCN1CC(O)c1ccccc1)c1ccccc1 (stereo unspecified) | -0.72 | 3.1
NC1=NC(=O)CC(C(=O)Nc2ccccc2)S1 (stereo unspecified) | 0.47 | 1.8
Cc1ccc(S(=O)(=O)Nc2cncc(C(=O)N3CCc4ccccc43)c2)cc1 | 0.59 | -0.4
N#Cc1ccc(Sc2ccc(C#N)c(C#N)c2)cc1C#N | -0.18 | 2.1
Cc1n[nH]c(C)c1CN | 0.098 | 1.4
Nc1ccccc1-c1nc2ccccc2s1 | -0.52 | 1.3
CC1(C)C(c2ccccc2)=NC(c2ccccc2)=[N+]1[O-] | -0.034 | 1.2
O=C(NCCCc1ccco1)c1ccc(Cn2c(SCc3ccccc3)nc3cccnc32)cc1 | 0.58 | -2.7
CC(=O)NNc1ncnc2c1cnn2-c1ccc(F)cc1 | -0.88 | 1.5
O=C(Nc1cccc(N2CCCC2=O)c1)C1CCN(C(=O)/C=C/c2ccccc2)CC1 | . | 0.5
CCCCn1c(CCC(=O)OCc2csc(-c3ccccc3)n2)nc2cc(S(=O)(=O)N3CCOCC3)ccc21 | . | 2.4
O=C(C1=C2SC=C(c3ccc(Br)cc3)N2CC1)c1cncc(Br)c1 | . | 0.8
COC(=O)c1cc2c(cc1N)OCCO2 | 0.044 | -2.2
CC(c1ccccc1)n1cnc2c1C(=O)c1ccccc1C2=O (stereo unspecified) | . | 0.8
Nn1c(SCC(=O)Nc2cccc(Br)c2)nnc1C1CC1 | . | 0.3
O=C(c1ccc(F)cc1)c1oc2ccccc2c1NC(=O)C1COc2ccccc2O1 (stereo unspecified) | -0.43 | -0.4
COC(=O)c1ccc(CC(=O)c2c(C)cc(O)cc2O)o1 | 0.28 | 13
C[N+]1(C)C2CC(OC(=O)[C@@H](CO)c3ccccc3)CC1C1OC12 (stereo partly specified) | -0.76&-0.33 | -0.4
COc1ccc(N(C(=O)c2ccco2)C(C(=O)NC2CCCC2)c2cc(OC)c(OC)c(OC)c2)cc1 (stereo unspecified) | -0.45 | -0.9
CCn1c(=O)c(=O)[nH]c2cc(C(=O)NCCCn3ccnc3)ccc21 | . | -0.3
CCN1C(=O)/C(=C2/C=Cc3ccccc3N2CC)SC1=Nc1ccc(N2CCOCC2)cc1 | -0.56 | 4.0
CCc1nn2c(=O)cc(COc3cccc(NC(=O)C45CC6CC(CC(C6)C4)C5)c3)nc2s1 | 0.85 | -1.0
COc1ccc(OC)c(S(=O)(=O)N2CCN(c3ncccn3)CC2)c1 | 0.33 | -3.0
COc1cccc(C=C2C(=O)c3ccccc3C2=O)c1OC(C)C | . | 4.7
Cc1cc(C)c2c(n1)sc1c(=O)oc(C)nc12 | 0.27 | 0.9
O=C(Nc1cccc(Cl)c1)Nc1nc(-c2ccc(OC(F)(F)F)cc2)no1 | . | 2.8
O=C(O)c1ccccc1C(=O)Nc1cccc(O)c1 | . | 0.9
CC1CN(CCCOc2ccc(C(C)(C)C)cc2)CC(C)O1 (stereo unspecified) | 2 | -3.8
c1ccc2c(c1)CCN2c1ncnc2c1nc1n2CCCCC1 | -0.022 | 0.5
Cc1cnc(N)c2c(=O)oc3ccccc3c12 | -0.085 | -1.2
O=C(Cc1ccc2c(c1)OCCO2)Nc1ccccc1C(=O)Nc1ccc2c(c1)OCO2 | . | -4.0
CC(OC(=O)C1=NNC(=O)CC1)C(=O)Nc1cccc(Cl)c1 (stereo unspecified) | . | -2.1
COc1ccc(CNC(=O)CN(C(=O)c2ccc(N3CCCC3)nc2)c2ccccc2C)cc1 | 0.063 | -1.7
CC(C)(C)c1cc(C(=O)Oc2cncc(Cl)c2)cc(C(=O)Oc2cncc(Cl)c2)c1 | . | 2.8
CN(CC(=O)Nc1cccc2ccccc12)Cc1nc2ccccc2c(=O)[nH]1 | . | 0.1
COC(=O)CNc1ccc(C)c(C)c1 | 0.53 | -2.2
Cc1nnsc1-c1noc(C)c1-c1nc(-c2cc(C(F)(F)F)cc(C(F)(F)F)c2)no1 | 0.64 | 1.3
COc1ccc(NC=O)c2ncccc12 | 0.68 | 1.6
